Marburg entry inh: qHTS for inhibitors of binding or entry into cells for Marburg Virus; Potency, µM (doses to about 37.8 µM), for inactives: top-dose activity change, negative = inhibition, actives largely listed as inhibitors; Marburg virus pseudotyped entry inhibition, cell reporter; control for the full effect not named in the record; about a third of the inactives were read at about 46 µM; hit rate 1.8% among 300,000; AID 540276, 2011; active = well fitted inhibition curve with a large enough effect; inconclusive = small, poorly fitted or top-dose-only effect, or effect the other way; inactive = flat fitted curve, though single readings scatter; tested in HEK293 cells; about a fifth of its hits are not listed in these tables; further: on the % scale 0 is the no-effect control and ±100 the full control effect; luciferase read-out
Cruzain noTriton: qHTS Assay for Promiscuous and Specific Inhibitors of Cruzain (without detergent). purified cruzain, Z-FR-AMC fluorescence, no detergent. Potency, µM, inactives show max response, negative = inhibition, most hits filed as inhibitors. Cruzipain (Trypanosoma cruzi), P25779. hit rate 2.3% among 200,000;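 further: plate controls were enzyme without inhibitor for no effect and buffer without enzyme for full effect; nearly all actives have a fitted effect of over 40% in size; top concentration of the series not given in the record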
Target sequence (P25779 123-467 limits assumed): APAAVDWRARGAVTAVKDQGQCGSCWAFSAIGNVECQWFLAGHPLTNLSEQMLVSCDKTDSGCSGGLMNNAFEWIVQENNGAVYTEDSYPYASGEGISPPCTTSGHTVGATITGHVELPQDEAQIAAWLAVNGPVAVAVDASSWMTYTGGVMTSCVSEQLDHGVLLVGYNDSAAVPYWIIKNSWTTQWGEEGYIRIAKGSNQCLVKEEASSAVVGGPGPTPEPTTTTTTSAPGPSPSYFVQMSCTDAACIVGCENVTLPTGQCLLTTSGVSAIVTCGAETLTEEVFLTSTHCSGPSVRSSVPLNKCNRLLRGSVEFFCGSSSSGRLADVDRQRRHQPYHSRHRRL
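Purified cruzain at 1.5 nM, pre-incubated 15 min with compound at room temperature in 100 mM sodium acetate pH 5.5, 5 mM DTT, 0.00005% Triton X-100. Reaction started with 2 uM Z-FR-AMC; AMC fluorescence increase over 60 s gives rate.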
2A StopGo: High Throughput Screening for Foot and Mouth Disease Virus Antivirals | human cells with a luciferase reporter of 2A StopGo recoding; control for the full effect not named in the record | Potency, µM (series often up to 57.9 µM), for the others: at the highest dose signal change, negative = less light | hit rate 1.2% among 410,000 | AID 1159524, 2015; active = well fitted falling curve with a large enough effect; inconclusive = small, poorly fitted or top-dose-only effect; inactive = no such curve, though single readings can be large or run the other way; tested in HEK293T cells; further: on the % scale 0 is the no-effect control and ±100 the full control effect; nearly all actives have a fitted effect of over 45% in size; luciferase light after 4 h
SARS PLpro yeast: qHTS of Yeast-based Assay for SARS-CoV PLP. hit rate 0.19% among 330,000. S. cerevisiae expressing SARS-CoV PLpro, growth rescue; control for the full effect not named in the record. AID 485353, 2010. Potency, µM (doses to about 32.9 µM), without a hit: at the top dose activity, positive = growth rescue; active means well fitted rising curve with a large enough effect; inconclusive means small, poorly fitted or top-dose-only effect; inactive means no such curve, though single readings can be large or run the other way; further: 0% is about no effect; nearly all actives have a fitted effect of over 55% in size; growth read by luminescence after 48 h
Cruzain inh Det: qHTS Assay for Promiscuous and Specific Inhibitors of Cruzain (with detergent) | Potency, µM, for the others: max response, negative = inhibition, hits mostly inhibitors | Cruzipain (Trypanosoma cruzi), P25779 | hit rate 0.43% among 200,000 | purified cruzain, Z-FR-AMC fluorescence, 0.01% Triton;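 further: plate controls were neutral wells for no effect and buffer without enzyme for full effect; nearly all actives have a fitted effect of over 40% in size; top concentration of the series not given in the record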
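Read-out: AMC fluorescence (360 nm excitation, 450 nm emission), four reads over 2 min, first-to-third difference used. Conditions: cruzain 1.5 nM, Z-FR-AMC 2 uM, pH 5.5 acetate, 5 mM DTT, 0.01% Triton X-100.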
RE007 growth inh: qHTS Assay for Inhibitors of the HIV-1 protein Vpr; S. pombe RE007 Vpr strain, BacTiter-Glo ATP luminescence, 24 h; control for the full effect not named in the record; hit rate 0.21% among 360,000; Potency, µM (titrated, usually from 92.2 µM), for inactives: top-dose activity change, negative = less growth; active = well fitted falling curve with a large enough effect; inconclusive = small, poorly fitted or top-dose-only effect; inactive = no such curve, though single readings can be large or run the other way;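 further: on the % scale 0 is the no-effect control and ±100 the full control effect; nearly all actives have a fitted effect of over 50% in size; the assay follows cell death caused by Vpr and the record does not say whether a fall means rescue or toxicity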
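Fission yeast RE007 carrying one integrated HIV-1 vpr copy, seeded at OD 0.01 in PMG+AL medium with 23 nL pinned compound. Grown 24 h at 30 degrees; viability read by BacTiter-Glo luminescence after 5 min.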
LASV entry inh: qHTS for Inhibitors of binding or entry into cells for Lassa Virus | Lassa virus pseudotype entry inhibition, cell reporter; control for the full effect not named in the record | Potency, µM (titrated, usually from 37.9 µM), for inactives: top-dose activity change, negative = inhibition, hits mostly inhibitors | hit rate 1.2% among 300,000 | AID 540256, 2011; active means well fitted inhibition curve with a large enough effect; inconclusive means small, poorly fitted or top-dose-only effect, or effect the other way; inactive means flat fitted curve, though single readings scatter; tested in HEK293 cells; further: on the % scale 0 is the no-effect control and ±100 the full control effect; nearly all actives have a fitted effect of over 50% in size; luciferase read-out
NS1 inh: qHTS Assay for Inhibitors of Influenza NS1 Protein Function | S. cerevisiae slowed by influenza A NS1, growth recovery by OD600 | Potency, µM (doses to about 46.1 µM), without a hit: at the highest dose activity, positive = more growth | hit rate 0.4% among 270,000 | AID 2326, 2010; active means well fitted rising curve with a large enough effect; inconclusive means small, poorly fitted or top-dose-only effect; inactive means no such curve, though single readings can be large or run the other way; further: nearly all actives have a fitted effect of over 50% in size
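Recovery from NS1-induced slow growth read by OD600 in budding yeast switched to galactose assay medium (pH 6.0, -URA) at 1:100 dilution. Compound 23 nl per well; the matching strain lacking NS1 serves as control.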
* = called active by the depositor; u = inconclusive; x = no result given; & = joins results of further samples; [ ] = remark or other dose. Unless noted, the call rests on the fitted dose curve; in most records, active means well fitted curve in the direction sought with a large enough effect; inconclusive means small, poorly fitted or top-dose-only effect, or another doubt; inactive means no such curve, though single readings can be large; an effect the other way counts as inactive or inconclusive. Potency means the concentration at half of the fitted maximal effect.

SMILES	Marburg entry inh	Cruzain noTriton	2A StopGo	SARS PLpro yeast	Cruzain inh Det	RE007 growth inh	LASV entry inh	NS1 inh
CN(C)S(=O)(=O)c1ccc(N2CCCC2)c(C(=O)Nc2nc(-c3ccc(F)c(F)c3)cs2)c1	u	-12%	-9%	-23%	-3.9%	4%	2%	18%
CCOC(=O)CN1C(=O)C(=O)N(Cc2c(Cl)cccc2Cl)C1=O	8%[46.1 µM]	x	-20%	1%	x	-6%	u	10%
CCc1cc(C(=O)Nc2cnn(Cc3ccccc3C)c2)no1	u	-7%	43%[activator]	x	-6.3%	x	u	x
Cc1c(O)c2ccccc2oc1=O	16%[46.1 µM]	x	4%	-1%	x	19%	14%	-5%
CS(=O)(=O)c1ccc2nc(NC(=O)C3CCCCC3)sc2c1	26%	6%	0%	3%	-0.8%	-1%	11%	-13%
c1coc(CNC2CCCCCCC2)c1	u	18%	1%	0%	3.4%	29%	-2%	-6%
COc1ccc(CN2CCN(Cc3ccc(C)cc3)C(CCO)C2)cc1OC (stereo unspecified)	x	x	-8%	0%	x	7%	x	7%
COc1ccc(CN(C)S(=O)(=O)c2nnc(NC(=O)c3cccc(F)c3)s2)cc1OC	4%[46.1 µM]	x	-9%	6%	x	2%	21%[46.1 µM]	-6%
COc1ccc(N(CC(=O)NCCc2ccccc2)C(=O)CCC(=O)Nc2nccs2)c(OC)c1	-7%[46.1 µM]	x	-17%	1%	x	32%	-9%	7%
CCC(C)NS(=O)(=O)c1ccc(N2CCCCS2(=O)=O)cc1 (stereo unspecified)	x	6%	-11%	x	0.6%	x	u	x
CCN(CC)C(=O)CSc1nnc(CNc2ccc(F)cc2)n1-c1ccccc1	12%	u	-2%	-6%	1.4%	-4%	-9%	-4%
O=C(CCN1C(=O)C2C3C=CC(C3)C2C1=O)Nc1c(F)cccc1F (stereo unspecified)	9%[46.1 µM]	11%	-18%	1%	6.8%	0%	-4%	-1%
O=C(CN1CCCC1)N1CCN(c2ccccc2)CC1	x	x	-5%	1%	x	1%	x	0%
COc1ccc(-c2c3c([nH]c(=S)c2C#N)CCC3)cc1	5%	16µM*	7%	7%	-1.1%	9%	11%	24%
O=C(CC1NC2CCCCC2NC1=O)Nc1ccc2c(c1)OCO2 (stereo unspecified)	12%	u	-19%	4%	1.4%	-7%	2%	-1%
CCOC(=O)C1(CCSC)NC(c2ccco2)C2C(=O)N(CC)C(=O)C21 (stereo unspecified)	3%	6%	-3%	3%	6.7%	10%	7%	5%
CCC(=O)NC(=S)Nc1ccccc1C(=O)OC	-17%	-1%	0%	0%	0.1%	2%	3%	-8%
O=C1[C@H]2[C@H](ON3CCCC[C@H]23)C(=O)N1c1ccc(Cl)cc1	x	x	5%	-6%	x	12%	1%	-3%
COc1ccccc1NC(=O)C1=C(C)Nc2nc(SCc3ccccc3Cl)nn2C1c1ccncc1 (stereo unspecified)	u	4%	1%	x	0.9%	x	-3%[46.1 µM]	x
COc1ccc(Oc2cnc3ccccc3n2)cc1	5%[46.1 µM]	x	42%[activator]	-5%	x	17%	-3%	x
Cc1cccc(NC(=O)c2cccnc2Cl)n1	4%[46.1 µM]	x	4%	4%	x	11%	33%[46.1 µM]	-1%
COC(=O)COn1c(-n2nc(C)cc2C)nc2ccccc2c1=O	10%	-5%	14%	16%	7.9%	2%	-4%	2%
CCOc1ccc(C(=O)NC(Cc2ccccc2)C(=O)OC)cc1 (stereo unspecified)	-7%[46.1 µM]	2%	49%[activator]	-9%	-2.1%	3%	4%	-26%
Cc1cc(C)nc(NC2=NCC(=O)N2c2ccccc2)n1	17%&17%	2%	9%	27%	-1.3%	3%	-5%	13%
COc1cc(OC)cc(C2C(C#N)=C(N)Oc3n[nH]c(-c4cccnc4)c32)c1 (stereo unspecified)	-1%	-1%	x	-8%	-0.8%	5%	-14%	0%[9.22 µM]
COc1ccc(NC(=O)C2CCC2)cc1S(=O)(=O)Nc1cc(C)ccc1Br	u	x	14%	3%	x	4%	u	x
NS(=O)(=O)c1ccc(NC(=O)COC(=O)c2cnccn2)cc1	-1%[46.1 µM]	x	1%	-1%	x	-27%	-2%[46.1 µM]	x
Cc1ccc2c(c1)sc1nc(-c3cc4cc(Cl)ccc4oc3=O)cn12	x	6%	-7%	x	3.1%	x	1%[46.1 µM]	x
CCC(C)c1ccc(NC(=O)Nc2cnccn2)cc1 (stereo unspecified)	x	x	0%	-1%	x	1%	x	1%
CCOC(=O)c1sc(NC(=O)CSc2ncccn2)nc1C	u	x	33%[activator]	7%	x	46%	u	2%
COc1ccc(NC(=O)Cc2csc(COc3cccc(C)c3)n2)c(OC)c1	8%[46.1 µM]	-11%	-4%	x	-7.1%	x	24%[46.1 µM]	x
O=C(Nc1cc(Cl)ccc1O)c1cc(-c2ccc3c(c2)OCO3)on1	u	-13%	48%[activator]	x	-2.8%	x	29%[46.1 µM]	x
Cc1ccc(-n2nnnc2SCC(=O)NCC2(N3CCOCC3)CCCCC2)c(C)c1	u	x	-24%	-4%	x	-3%	6%	x
CCC(C)(C)n1nnnc1C(c1cc(OC)c(OC)c(OC)c1)N1CCN(c2ccccc2)CC1 (stereo unspecified)	11%&11%[46.1 µM]	u	0%	12%	-5.7%	-1%	u	-6%
COc1ccc(NC(=O)Cc2coc3cc(C)ccc23)cn1	4%[46.1 µM]	x	24%	1%	x	-7%	16%[46.1 µM]	x
COc1cc2c(cc1OC)C(C(=O)Nc1cccc(C)n1)C(c1cccnc1)N(C)C2=O (stereo unspecified)	4%[46.1 µM]	5%	-9%	3%	7.2%	-4%	-4%	0%
O=C(NCc1cccnc1)C1CCCN(S(=O)(=O)c2ccc(Br)cc2)C1 (stereo unspecified)	-8%&-1%	14%	u	x	-3.3%	7%	-2%	2%
Cc1ccc(-c2cnn(-c3ccccc3)c2N)cc1	x	x	-3%	-4%	x	u	x	-3%
Cc1cccc(NCCC(=O)c2ccc([N+](=O)[O-])cc2)c1C	u	x	0%	-7%	x	35µM*	-14%[46.1 µM]	-2%
COc1cc(C(=S)N2CCOCC2)cc(OC)c1OS(=O)(=O)c1ccc(Cl)cc1	x	x	-24%	2%	x	-16%	x	9%
CCC(CC)C(=O)NCCCN1CCOCC1	1%	-7%	-12%	-2%	-1.2%	20%	8%	5%
S=C(NCCc1ccccc1)NCC(c1ccco1)N1CCCCC1 (stereo unspecified)	u	x	17%	1%	x	-4%	u	2%
CCOC(=O)CC(=O)CSc1ncnc2c1nnn2-c1ccccc1	x	x	-7%	4%	x	0%	x	19%
O=C(CCCc1nc2ccccc2s1)NCc1ccc(F)cc1	-17%	-5%	-10%	-7%	-6.8%	4%	-1%	5%
CCC(=O)Nc1nnc(S(=O)(=O)N(C)c2cc(C)cc(C)c2)s1	x	x	-2%	1%	x	4%	x	-1%
O=S(=O)(NCc1cccnc1)c1ccc(Br)s1	-2%	1%	30%	-4%	2.0%	23%	10%	-2%
COc1ccc(CN2C(=O)c3ccccc3C2=O)cc1C(=O)N(C)CC(=O)Nc1ccc(F)cc1	27%	x	-16%	0%	x	13%	-1%	x
CCOc1ccc(N(CC(=O)NC2CCCCC2)C(=O)CCC(=O)Nc2cc(C)ccn2)cc1	8%[46.1 µM]	x	-1%	7%	x	17%	u	-1%
Cc1ccc(OCC(O)Cn2c(NCCc3ccccc3)nc3c2c(=O)[nH]c(=O)n3C)cc1 (stereo unspecified)	0%&0%	u	-18%	u	1.8%	-2%	-1%	1%
O=C(CN1CCOCC1)Nc1ccccc1C(=O)O	2%	-4%	x	3%	3.7%	-4%	2%	-2%
Carrying on.
SMILES	Marburg entry inh	Cruzain noTriton	2A StopGo	SARS PLpro yeast	Cruzain inh Det	RE007 growth inh	LASV entry inh	NS1 inh
COc1ccc(OC)c2sc(Cl)nc12	-9%[46.1 µM]	x	12%	2%	x	5%	-7%[46.1 µM]	x
O=C(c1ccncc1)c1ccc([N+](=O)[O-])cc1	8%[46.1 µM]	x	0%	-2%	x	-15%	9%[46.1 µM]	0%
CCOC(=O)c1cc(/C(C)=N/OC(=O)c2ccc(C(C)(C)C)cc2)on1	x	x	-16%	1%	x	3%	x	6%
COc1ccccc1CNc1cc(CSc2ccc(Cl)cc2)nc(C)n1	u	-5%	40µM*	-7%	-5.7%	8%	-8%	-11%
CCCCn1c(N)c(N(CCC(C)C)C(=O)c2ccc(N3CCCC3=O)cc2)c(=O)[nH]c1=O	u	x	-5%	2%	x	-8%	-4%	x
Cc1ccc(CS(=O)(=O)Cc2ccc(C(=O)NCc3ccccn3)o2)cc1	0%	3%	x	-3%	0.8%	9%	-4%	15%
CCOc1ccc(C(=O)N2CCN(Cc3cc(=O)n4nc(-c5cccc(OC)c5)sc4n3)CC2)cc1	x	u	-9%	x	-6.5%	x	-15%[46.1 µM]	x
Cc1ccc2nc(N(CCCN(C)C)C(=O)c3ccco3)sc2c1	x	x	25%&46%	0%	x	-2%	11%[46.1 µM]	x
Cn1c(=O)n(CC(=O)N2CCN(c3nnc(-c4ccccc4)c4ccccc34)CC2)c2ccccc21	u	4%	-4%	-13%	-5.9%	13%	u	-7%
CCn1c(=O)c(C(=O)NCc2ccc3c(c2)OCO3)c(O)c2ccccc21	-20%	x	-11%	0%	x	2%	u	0%
NC(=O)C1CCN(C2CC(=O)N(Cc3cccs3)C2=O)CC1 (stereo unspecified)	11%	-7%	-18%	-55%	1.7%	u	-1%	-31%
CCOCCCn1c(=S)[nH]c2cc(C(=O)NCCCN(CC)CC)ccc2c1=O	u	x	-13%	-5%	x	-8%	25%[46.1 µM]	x
COc1cc(/C=N/NC(=O)Cc2cccs2)c([N+](=O)[O-])cc1OC	4%	-20%	-16%	-7%	-5.6%	4%	-3%	9%
O=C(O)c1ccc(S(=O)(=O)c2ccc3c(c2)C(=O)N(NC(=O)c2ccccc2)C3=O)cc1	u	x	4%	-1%	x	5%	9%	x

Bioassay records deposited in PubChem BioAssay by National Center for Advancing Translational Sciences (NCATS).
